Source: PubChem (several laboratories)
Mtb H37Rv = M. tuberculosis H37Rv growth inhibitors, H37Rv strain (AID 1626). one-dose inhibition, % at 10 µM; IC50 in µM for titrated hits. M. tuberculosis H37Rv growth inhibition; higher % means a stronger effect. 220,000 tested, 0.95% active;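 active means confirmed in a dose series; inconclusive means inhibition above 80% but not taken into the dose series; inactive means below 80% or under 30% at every dose of the series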;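 further: bacteria incubated seven days before Alamar blue readout; 0% = bacteria only wells and 100% = bacteria with antibiotic wells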
YopH inh = inhibitors of Yersinia enterocolitica YopH tyrosine phosphatase | fluorescence Ex485/Em525 | inhibition, %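 (about 10 µM by stock and volumes)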 | 140,000 tested, 0.16% active;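 active means inhibition of 50% or more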;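 further: controls were vehicle for no effect and minimum signal wells for full effect; inactives centre near -20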
Mtb bLac sens = beta-lactam sensitization of Mtb H37Rv; inhibition, % at 25 µM; M. tuberculosis H37Rv growth with meropenem, percent inhibition; hits of this screen are not shown here; 330,000 tested, 0.27% active;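 active means about 74% or more and at least 40 points above the plate without the antibiotic, then above 30% in a dose series; inconclusive means first-round hits that could not be retested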;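 further: growth measured after seven days incubation then overnight dye step; 0% = bacteria only wells and 100% = bacteria with antibiotic; twin plates without the antibiotic show which effects depend on it; some results filed as inactive read as strong as hits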
Arbovirus inh = arbovirus infection inhibition; 200,000 tested, 0.37% active; AID 1251; arbovirus infection cell-based antiviral screen; inhibition, % at 10 µM;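 active means inhibition from about 30%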;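 further: bluetongue infection of BSR cells; cell survival read as ATP light after 72 h; 0% = infected wells without compound and 100% = uninfected wells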
RecA splice inh = blocks M. tuberculosis RecA intein splicing | AID 2221 | cell-free RecA intein splicing, fluorescence | inhibition, %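 (about 9 µM by stock and volumes)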 | 290,000 tested, 0.75% active | P9WHJ3; in the data active means inhibition above about 30%; inconclusive means no clear call, values can overlap the other calls;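 further: 0% = vehicle wells and 100% = reference inhibitor control wells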
Target sequence (P9WHJ3 whole entry, looked up, canonical isoform): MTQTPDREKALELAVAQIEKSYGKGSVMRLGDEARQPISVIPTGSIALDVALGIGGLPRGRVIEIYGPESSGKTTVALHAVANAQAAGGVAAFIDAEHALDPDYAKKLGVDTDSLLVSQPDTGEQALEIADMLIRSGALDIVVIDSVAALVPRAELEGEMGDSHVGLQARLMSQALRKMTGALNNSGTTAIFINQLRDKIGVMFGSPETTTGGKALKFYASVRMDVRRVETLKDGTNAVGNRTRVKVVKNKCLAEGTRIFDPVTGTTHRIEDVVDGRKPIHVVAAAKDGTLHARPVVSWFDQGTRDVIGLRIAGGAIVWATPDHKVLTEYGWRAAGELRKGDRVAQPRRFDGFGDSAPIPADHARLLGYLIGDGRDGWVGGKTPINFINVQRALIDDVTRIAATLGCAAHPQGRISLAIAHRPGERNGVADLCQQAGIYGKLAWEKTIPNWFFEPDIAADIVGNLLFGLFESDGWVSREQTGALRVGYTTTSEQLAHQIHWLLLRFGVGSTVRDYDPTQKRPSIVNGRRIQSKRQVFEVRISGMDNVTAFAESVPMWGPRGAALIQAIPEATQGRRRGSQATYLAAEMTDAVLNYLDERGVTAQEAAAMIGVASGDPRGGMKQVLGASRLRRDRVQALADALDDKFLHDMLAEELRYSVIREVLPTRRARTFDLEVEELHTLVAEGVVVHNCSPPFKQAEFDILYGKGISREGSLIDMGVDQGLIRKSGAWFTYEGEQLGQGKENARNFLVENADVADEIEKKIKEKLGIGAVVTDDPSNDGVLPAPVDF
Arbovirus inh repeat = further read-out of Arbovirus inh, marked with its call; inhibition, %; measured here: 10K subset replicate screen; many hits read low in the repeat;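 first of two repeat runs on a subset; 0% = infected and 100% = uninfected wells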
Active calls of the source: *; u = inconclusive; x = no result given. These rows are one share of the data, so the mix of outcomes need not match the whole.

SMILES	Mtb H37Rv	YopH inh	Mtb bLac sens	Arbovirus inh	RecA splice inh	others
Cc1ccc(/C=C/C(=O)N2CCCN(C(=O)/C=C/c3ccc(C)cc3)CC2)cc1	47%	-12	84	4	3.8
O=C(Nc1ccccc1N1CCOCC1)c1cccc(Oc2ccccc2)c1	x	x	1	x	14
O=C(c1ccc(Cl)cc1)c1ccccc1C(=O)N1CCOCC1	12%	-19	-2	10	2.9
COCOc1ccc(-c2cc(=O)c3c(O)cc(OCOC)cc3o2)cc1	-5%	x	-5	x	-0.5
CN1OCC2Cn3c(nc4ccccc43)C21 (stereo not drawn)	-4%	x	-10	x	x
COc1cccc(N2[C@@H](CC(=O)O)c3cc(C(F)(F)F)ccc3S2(=O)=O)c1	-1%	x	-3	x	-4.0
O=C1NC(c2ccncc2)Nc2sc3c(c21)CCCC3 (stereo not drawn)	14%	-32	17	1	x
CCc1ccc(OCC(=O)O/N=C(\N)c2cccnc2)cc1	12%	x	-3	x	3.3
CCc1ccc(N2CC(C(=O)OC)CC2=O)cc1 (stereo not drawn)	6%	x	63	0	2.6
O=C(OCCC1Oc2cccnc2NC1=O)c1ccc(Cl)cc1 (stereo not drawn)	-1%	x	0	4	-3.3
COc1ccc(Nc2ncnc3c2c(C)c(C)n3CCCN(C)C)cc1	x	x	-14	x	-1.1
Cc1ccc(C)c(C(=O)CN2C(=O)c3ccccc3S2(=O)=O)c1	7%	0	3	1	0.2
CCn1c(=O)c2ccccc2n(Cc2ccc([N+](=O)[O-])cc2)c1=O	x	x	5	x	3.5
Cc1cc([N+](=O)[O-])nn1CCC(=O)NC1CCCCCC1	36%	-35	-7	7	-0.7
COc1ccccc1CNC(=O)C(NC(=O)C1CCCCC1)C(C)C (stereo not drawn)	x	x	-1	x	1.4
Cc1cc(NC(=O)CSc2nnc(-c3ccc(Br)o3)n2Cc2ccccc2)no1	1%	-24	-1	5	5.3
Fc1ccc(-c2csc3ncnc(N4CCN(c5ccccc5)CC4)c23)cc1	x	x	0	x	-0.9
COc1ccc(S(=O)(=O)N2CCC(C(=O)Nc3nnc(C)s3)CC2)cc1OC	x	x	-8	x	-2.7
O=C(c1cc2c(s1)CCCC2)N1CCN(S(=O)(=O)c2ccccc2C(F)(F)F)CC1	4%	-21	-3	12	6.5
C#CCOCCOCCOCCNc1nc(N2CCN(C(=O)[C@H]([C@@H](C)CC)n3cc([C@@H](N)CC(C)C)nn3)CC2)nc(N2CCN(C(=O)[C@H](Cc3ccc(O)cc3)n3cc([C@@H](N)C(C)CC)nn3)CC2)n1 (stereo partly drawn)	-5%	x	0	-7	0.7
C=CCNc1scc(-c2ccccc2)[n+]1CC=C	5%	x	0	-1	-0.7
COc1ccccc1CNC(=O)[C@H](C)NC(=O)[C@@H]1Cc2ccccc2CN1	x	x	3	x	3.4
Clc1cccc(-c2ccc(/C=N/n3cnnc3)o2)c1Cl	7%	12	-5	8	-0.1
O=C(CC12CC3CC(CC(C3)C1)C2)NCC(=O)N1CCc2ccccc2C1	10%	1	-6	2	3.2
c1ccc2c(C[C@@H]3CNCCN3CC3CCCCC3)cccc2c1	x	x	83	x	7.6

(list continues)
SMILES	Mtb H37Rv	YopH inh	Mtb bLac sens	Arbovirus inh	RecA splice inh	others
O=C(NCCc1ccccc1)C1CCCN(c2cnccn2)C1 (stereo not drawn)	x	x	-1	x	1.0
Cc1ccnc(NC(=O)CCC(=O)N(CC(=O)NCc2ccccc2)Cc2ccc(F)cc2)c1	x	x	-5	x	-6.5
O=c1c2sc(-c3ccccc3)cc2nc2n1CCC2	-7%	11	-4	-11	-0.4
CCCSC1=C(C#N)C2(CCCCC2)C(C#N)=C(N)N1	4%	x	-3	-8	x
Cc1nn(-c2ccc(F)cc2)c2sc(C(=O)N3CCCCCC3)cc12	21%	-18	28	-19	-6.4
N=c1sccn1CC(=O)Nc1cccc(S(N)(=O)=O)c1	-1%	x	0	x	-4.5
CC(=O)c1ccc(OCCCC(=O)NC2=NCCS2)cc1	-6%	-29	3	8	-1.1
CCOC(=O)c1ccccc1Nc1cc(C)nc2nc(C)nn12	-14%	-43	1	0	1.0	Arbovirus inh repeat=-3
C#CCOC(=O)C[N+](C)(C)CC=C	-2%	x	2	x	-0.1
CCCn1c(SCC(=O)Nc2nc3c(s2)CCCC3)nc2c1c(=O)n(C)c(=O)n2C	-1%	-31	-3	19	2.1
Clc1ccccc1CONc1ncnc2nonc12	4%	-39	-8	13	-8.9
O=C(Cc1cccs1)N1CCN=C1SCc1ccccc1F	0%	x	-10	6	7.7
COc1ccc(CN2CCNC(=O)C2CC(=O)NC2CCCCCC2)cc1C (stereo not drawn)	x	x	-3	x	2.2
O=C(COc1ccc2ccccc2c1)N1CCN(C2CCN(Cc3ccccc3)CC2)CC1	-2%	-11	2	-5	2.2
Cc1ccccc1NC(=O)NC1CCCc2ccccc21 (stereo not drawn)	x	x	-4	x	-1.8
O=C(N[C@@H](Cc1ccccc1)C(=O)NC1CCCCC1)c1ccco1	x	-24	10	-1	-1.7
Cc1ccc(C(=O)O)cc1Nc1ncnc2sc3c(c12)CCC3	-11%	x	-4	x	0.9
Cc1ccc(S(=O)(=O)NCCCCCC(=O)NC(C)(C)CO)cc1	0%	-3	3	4	-0.8
CC(C)(C)NS(=O)(=O)c1ccc(CCC(=O)N2CCCC2)cc1	6%	x	-5	23	-0.9
CCN1CCN(S(=O)(=O)c2ccc(Cl)c(C(=O)Nc3cc(Cl)ccc3N3CCOCC3)c2)CC1	x	x	3	x	-1.8
COC(=O)/C=C/c1sc2nc(C)cc(C)c2c1N=CN(C)C	1%	x	x	45*	x
CCOC(=O)c1sc(Nc2nc3c(OC)cccc3s2)nc1C	4%	-38	-2	-10	-3.5
Cc1ccc(C(=O)N2c3ccccc3N(Cc3ccccc3)C(=O)C2(C)C)cc1	-6%	10	8	-21	10.0
Cc1c(Cl)cccc1NC(=O)N1CCCC1	-7%	x	2	6	1.9
COc1ccc(CCNC(=O)COC(=O)c2ccccc2NCCO)cc1OC	x	x	-4	x	-4.3

Next results follow.
SMILES	Mtb H37Rv	YopH inh	Mtb bLac sens	Arbovirus inh	RecA splice inh	others
CCC1CCC(C(=O)NC(CCSC)C(=O)NCCN(CC(C)C)CC(C)C)CC1 (stereo not drawn)	-1%	x	-1	-12	-4.0
Nc1nc(Sc2ncccc2[N+](=O)[O-])n[nH]1	4%	x	x	x	-12
CCN(CC)CCN(Cc1cc2cc3c(cc2[nH]c1=O)OCO3)C(=S)NCC1CCCO1 (stereo not drawn)	3%	x	-9	8	-2.0
Clc1cnc(Oc2ccc(Oc3ncc(Cl)cc3Cl)cc2)c(Cl)c1	-1%	-11	9	6	-0.4
COc1ccc(CNC(=O)c2ccc(=O)oc2)cc1OC	-8%	-47	-9	-3	-0.6
O=C1CC(c2ccc(F)c(Br)c2)C2=C(CCCC2=O)N1 (stereo not drawn)	-2%	-28	-2	5	2.2
NNC(=O)c1sccc1OCc1ccc(F)cc1	-3%	x	1	-5	7.9
O=C(c1sc2cc(Cl)ccc2c1Cl)N1CCN(CCc2ccccn2)CC1	x	x	81	x	3.0
COc1cc2ncnc(NCc3ccccc3C)c2cc1OC	11%	-39	-2	2	1.0
CCC(=O)c1ccc(OC(=O)N2CCOCC2)cc1	x	x	-1	x	-1.3
Cc1cccc(C)c1OCC(=O)N(Cc1ccco1)C1CCS(=O)(=O)C1 (stereo not drawn)	x	x	-4	x	-4.2
COc1cc(NC(=O)COC(=O)c2ccccc2SCC(=O)N2CCCC2)cc(OC)c1	x	x	-8	x	0.8
Cc1ccc2c(c1)C(O)(C1COC(C)(C)CC1=O)C(=O)N2C (stereo not drawn)	-6%	x	-4	-8	0.0
Cc1[nH]n(-c2ccccc2)c(=O)c1C(=O)c1ccc(Cl)cc1	-4%	x	85	x	3.5
O=C(NCc1cccnc1)c1noc2c1CCCCC2	-7%	-12	-11	2	-3.5
Cc1ccc(C(=O)N(NC2=NS(=O)(=O)c3ccccc32)S(=O)(=O)c2ccc(C)cc2)cc1	-6%	-107	-6	8	x
Cc1ccc(C(O)c2nc3ccccc3n2C(C)C)cc1 (stereo not drawn)	x	-18	-2	1	2.5
OCCCn1c(CCNc2nc(-c3ccc(F)cc3)cs2)nc2cc(C(F)(F)F)ccc21	2%	x	96	x	5.8
Cc1cc(=O)c2c(C)nn(-c3ccccc3)c2[nH]1	4%	-39	5	2	-2.0	Arbovirus inh repeat=2
Cc1nn(C)cc1NC(=O)c1ccc(Br)o1	4%	-20	3	3	-1.2
CC1CC(C)CN(S(=O)(=O)c2ccc(C(=O)Nc3nnc(C4CC4)o3)cc2)C1 (stereo not drawn)	x	x	18	x	2.1
COCCNS(=O)(=O)c1ccc(-c2ccc(C)cc2)cc1	u	-13	x	-2	-0.1
CCOC(=O)c1sc(=S)n(-c2ccccc2Cl)c1C	3%	x	-4	x	-4.9
Cc1ccccc1C(=O)NC(=S)Nc1sc2c(c1C#N)CCCC2	15%	-35	1	8	6.3
O=C(COc1cccc(F)c1)NNC(=O)c1cccc(-n2cccc2)c1	x	x	-4	x	-5.5

Taken from the entries so far for reference:
SMILES	Mtb H37Rv	YopH inh	Mtb bLac sens	Arbovirus inh	RecA splice inh	others
Nc1nc(Sc2ncccc2[N+](=O)[O-])n[nH]1	4%	x	x	x	-12
CCN(CC)CCN(Cc1cc2cc3c(cc2[nH]c1=O)OCO3)C(=S)NCC1CCCO1 (stereo not drawn)	3%	x	-9	8	-2.0
Clc1cnc(Oc2ccc(Oc3ncc(Cl)cc3Cl)cc2)c(Cl)c1	-1%	-11	9	6	-0.4
COc1ccc(CNC(=O)c2ccc(=O)oc2)cc1OC	-8%	-47	-9	-3	-0.6
O=C1CC(c2ccc(F)c(Br)c2)C2=C(CCCC2=O)N1 (stereo not drawn)	-2%	-28	-2	5	2.2
NNC(=O)c1sccc1OCc1ccc(F)cc1	-3%	x	1	-5	7.9

Four records picked at random from the list so far:
SMILES	Mtb H37Rv	YopH inh	Mtb bLac sens	Arbovirus inh	RecA splice inh	others
O=C(c1sc2cc(Cl)ccc2c1Cl)N1CCN(CCc2ccccn2)CC1	x	x	81	x	3.0
Cc1cc(=O)c2c(C)nn(-c3ccccc3)c2[nH]1	4%	-39	5	2	-2.0	Arbovirus inh repeat=2
O=C(NCc1cccnc1)c1noc2c1CCCCC2	-7%	-12	-11	2	-3.5
Cc1ccccc1C(=O)NC(=S)Nc1sc2c(c1C#N)CCCC2	15%	-35	1	8	6.3

Later entries
SMILES	Mtb H37Rv	YopH inh	Mtb bLac sens	Arbovirus inh	RecA splice inh	others
COc1ccc(OC)c(CN(CCN2CCOCC2)S(=O)(=O)c2ccc(NC(C)=O)cc2)c1	-2%	x	-5	x	-1.4
CCN(C(=O)CSc1nc2nc(C)cc(C)n2n1)C1CCS(=O)(=O)C1 (stereo not drawn)	-13%	x	1	-2	0.2
O=C(Cn1nnc2ccccc2c1=O)NCCc1ccc(F)cc1	-6%	-33	-2	7	-0.4
CCOC(=O)CNC(=O)N(CCOC)CC1CCCN(C2Cc3ccccc3C2)C1 (stereo not drawn)	x	x	5	x	2.6
COc1ccc(OCC(O)CN(CCO)CC(O)Cn2ccc3ccccc32)cc1 (stereo not drawn)	3%	-16	3	3	-0.9
CCOC(=O)c1nc(Nc2ccc(N3CCC(C)CC3)cc2)c2ccccc2n1	x	x	9	13	3.7
O=C(CSc1nnc(-c2ccccc2)n1CC1CCCO1)N1CCCC1 (stereo not drawn)	-2%	x	-9	3	0.0
COc1ccc(NC(=O)Nc2ccc(C)cc2Br)c(OC)c1	2%	x	-2	-11	x
O=C(NC1CCN(C(=O)N2c3ccccc3Sc3ccccc32)CC1)c1ccco1	-4%	7	-7	-7	0.1	Arbovirus inh repeat=-10
CC(=O)c1ccc2cccc3c2c1N=CN3C	x	8	-12	-3	-86
CCOC(=O)c1ccc2c(c1)nc(SCC(=O)c1cc3ccccc3o1)n2CC	-3%	14	u	-8	0.9
Cc1cc(C)nc(NS(=O)(=O)c2ccc(NC(=O)c3ccc(O)cc3O)cc2)n1	x	x	3	x	-1.7
CS(=O)(=O)N(CCc1ccccc1)CC(=O)N1CCN(Cc2ccc3c(c2)OCO3)CC1	-13%	-2	5	4	-2.3
OCCNc1nc(Nc2ccccc2O)nc(N2CCCC2)n1	-6%	x	-9	x	-1.3
COCC1CCN(Cc2nc(Cc3ccccc3Cl)no2)CC1	3%	x	-5	1	-0.1
C=CCn1c(N)cc(=O)nc1SCC(=O)Nc1ccccc1	-5%	-14	-2	15	-7.2
O=P(CCCCCCCCCP(=O)(c1ccccc1)c1ccccc1)(c1ccccc1)c1ccccc1	3%	-14	23	-38	60*
C1CCCC(N2CCNCC2)CC1	-3%	-34	-3	-9	x
Cc1[nH]n(-c2ccccc2)c(=O)c1C(c1ccc([N+](=O)[O-])cc1)c1c(C)[nH]n(-c2ccccc2)c1=O	8%	-2	6	1	95*
CCN(CC(=O)Nc1c(F)cccc1F)C(=O)c1ccc(=O)[nH]c1	x	x	0	x	-2.4
